From PubChem
Vaccinia stage: Vaccinia orthopox stage-specific inhibition. Vaccinia-infected cells, mCherry/Venus stage reporter fluorescence; active compounds read low; some inactives read as strong as hits. activity change (mCherry), % (no concentration beside the values). 89,000 compounds, 0.01% hits. AID 1053133;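 active means mCherry past -33% and 40 or more points under the early reporter, replicates agreeing; inconclusive means past -33% without that gap or agreement; tested in A549 cells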;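 further: scaled between vehicle wells and reference inhibitor wells; 23 nL library stock went into each well; one replicate is shown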
Vaccinia stage Venus: further read-out of Vaccinia stage, marked with its call; activity change (Venus), %; measured here: Venus reporter, other viral stage;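 negative = less Venus signal; first of two replicates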
* = called active by the depositor; & = joins results of further samples. Some of the compounds tested. The share of hits here may be higher or lower than overall.

Results for CN(C)C(=O)c1cccc(-c2ccc([C@@H]3[C@@H](CO)N4CCCCN(C(=O)C5CCC5)C[C@H]34)cc2)c1 ?
Vaccinia stage: 19; Vaccinia stage Venus: -1

How did C[C@@H]1CCCCO[C@@H](CN(C)C(=O)Nc2ccc3c(c2)OCO3)[C@@H](C)CN([C@@H](C)CO)C(=O)c2cc(NC(=O)CCC(F)(F)F)ccc2O1 do in these assays?
Vaccinia stage: -3; Vaccinia stage Venus: 4

What do the screens show for `C[C@@H]1CN([C@H](C)CO)C(=O)Cc2cc(NC(=O)c3ccncc3)ccc2O[C@@H]1CN(C)CC1CCCCC1`?
Vaccinia stage: -9; Vaccinia stage Venus: -3

Results for C[C@@H]1CN([C@H](C)CO)C(=O)Cc2cc(NC(=O)C3CCCCC3)ccc2O[C@H]1CN(C)CC1CCCCC1 ?
Vaccinia stage: -14; Vaccinia stage Venus: -4

How did CCNC(=O)[C@@H]1[C@@H](CO)[C@@H]2Cn3c(ccc(-c4ccncc4)c3=O)[C@@H]2N1Cc1ccccc1 do in these assays?
Vaccinia stage: 7; Vaccinia stage Venus: 7

Results for C[C@@H]1CN([C@@H](C)CO)C(=O)CCCn2nncc2CO[C@@H]1CN(C)Cc1ccc2c(c1)OCCO2 ?
Vaccinia stage: 5; Vaccinia stage Venus: -2

Results for C[C@@H]1CN([C@@H](C)CO)C(=O)c2cc(NC(=O)Cc3ccccc3)ccc2O[C@H]1CN(C)S(=O)(=O)c1cccs1 ?
Vaccinia stage: -6; Vaccinia stage Venus: -6

How did CC(C)CC#Cc1ccc([C@H]2[C@@H](CO)N3CCCCN(C(=O)c4ccc5c(c4)OCO5)C[C@@H]23)cc1 do in these assays?
Vaccinia stage: inconclusive

What do the screens show for `CCCN(C)C[C@@H]1Oc2cc(C#Cc3ccccc3)ccc2S(=O)(=O)N([C@@H](C)CO)C[C@H]1C`?
Vaccinia stage: 16; Vaccinia stage Venus: 1

How did C[C@@H]1CN([C@H](C)CO)C(=O)c2cc(NS(=O)(=O)c3ccc(F)cc3)ccc2O[C@@H]1CN(C)C do in these assays?
Vaccinia stage: 0; Vaccinia stage Venus: 1

How did Cc1noc(C)c1NC(=O)N(C)C[C@H]1Oc2c(NS(=O)(=O)c3cccs3)cccc2C(=O)N([C@@H](C)CO)C[C@@H]1C do in these assays?
Vaccinia stage: 3; Vaccinia stage Venus: 3

How did C[C@H](CO)N1C[C@H](C)[C@@H](CN(C)S(C)(=O)=O)Oc2ccc(NC(=O)c3ccncc3)cc2CC1=O do in these assays?
Vaccinia stage: 8; Vaccinia stage Venus: 2

What do the screens show for `C[C@@H]1CN([C@H](C)CO)C(=O)Cc2cc(NC(=O)Cc3cn(C)c4ccccc34)ccc2O[C@H]1CN(C)C`?
Vaccinia stage: 7; Vaccinia stage Venus: -1

Results for C[C@H](CO)N1C[C@H](C)[C@@H](CN(C)C(=O)Nc2ccccc2)Oc2c(NC(=O)Nc3ccc(F)cc3)cccc2C1=O ?
Vaccinia stage: 7; Vaccinia stage Venus: 9

Results for CC(C)NC(=O)Nc1ccc2c(c1)C(=O)N([C@H](C)CO)C[C@@H](C)[C@@H](CN(C)C)OCCCC[C@@H](C)O2 ?
Vaccinia stage: 6; Vaccinia stage Venus: 4

Overlap with the part before: three compounds, followed by the next part.
What do the screens show for `C[C@@H]1CN([C@H](C)CO)C(=O)Cc2cc(NC(=O)Cc3cn(C)c4ccccc34)ccc2O[C@H]1CN(C)C`?
Vaccinia stage: 7; Vaccinia stage Venus: -1

Results for C[C@H](CO)N1C[C@H](C)[C@@H](CN(C)C(=O)Nc2ccccc2)Oc2c(NC(=O)Nc3ccc(F)cc3)cccc2C1=O ?
Vaccinia stage: 7; Vaccinia stage Venus: 9

Results for CC(C)NC(=O)Nc1ccc2c(c1)C(=O)N([C@H](C)CO)C[C@@H](C)[C@@H](CN(C)C)OCCCC[C@@H](C)O2 ?
Vaccinia stage: 6; Vaccinia stage Venus: 4

Results for C[C@@H]1CN([C@H](C)CO)C(=O)c2cc(NC(=O)c3ccncc3)ccc2O[C@@H]1CN(C)S(=O)(=O)c1ccc(F)cc1 ?
Vaccinia stage: 11; Vaccinia stage Venus: 1

How did C[C@@H]1CN([C@H](C)CO)C(=O)Cc2cc(NC(=O)CCC(F)(F)F)ccc2O[C@@H]1CN(C)C(=O)Nc1ccc2c(c1)OCO2 do in these assays?
Vaccinia stage: 5; Vaccinia stage Venus: 17

How did C[C@@H]1CCCCO[C@H](CN(C)C(=O)c2ccncc2)[C@H](C)CN([C@H](C)CO)C(=O)c2cc(NS(=O)(=O)c3ccccc3)ccc2O1 do in these assays?
Vaccinia stage: 35; Vaccinia stage Venus: 15

How did CCC(=O)N[C@@H]1CC[C@@H](CC(=O)NCc2ccc(OC)cc2)O[C@@H]1CO do in these assays?
Vaccinia stage: 5; Vaccinia stage Venus: 8

Results for C[C@H](CO)N1C[C@H](C)[C@H](CN(C)C(=O)Nc2cccc3ccccc23)Oc2ccc(NC(=O)CCCN(C)C)cc2C1=O ?
Vaccinia stage: 12; Vaccinia stage Venus: 12

What do the screens show for `COCC(=O)N1C[C@@H](C)[C@H](OC)CN(C)C(=O)c2cc(NC(=O)c3ccccc3)ccc2OC[C@@H]1C`?
Vaccinia stage: 20; Vaccinia stage Venus: 13

How did CO[C@H]1CN(C)C(=O)c2cc(NC(=O)Nc3ccccc3)ccc2OC[C@@H](C)N(C(C)=O)C[C@H]1C do in these assays?
Vaccinia stage: 18; Vaccinia stage Venus: 21

What do the screens show for `Cc1noc(C)c1NC(=O)Nc1ccc2c(c1)C(=O)N([C@H](C)CO)C[C@H](C)[C@H](CN(C)C(=O)c1ccccc1)OCCCC[C@H](C)O2`?
Vaccinia stage: 4; Vaccinia stage Venus: 2

Results for C[C@@H]1CN([C@H](C)CO)C(=O)Cc2cc(NC(=O)NC3CCCCC3)ccc2O[C@H]1CN(C)Cc1ccc(-c2ccccc2)cc1 ?
Vaccinia stage: inconclusive

What do the screens show for `COCC(=O)Nc1ccc2c(c1)C(=O)N(C)[C@H]1CC[C@@H](CC(=O)NCCc3ccccc3)O[C@@H]1CO2`?
Vaccinia stage: 11; Vaccinia stage Venus: 7

What do the screens show for `COc1cccc(NC(=O)N2CC(=O)N3[C@@H](CO)[C@@H](c4ccc(Br)cc4)[C@@H]3C2)c1`?
Vaccinia stage: -11; Vaccinia stage Venus: -14

How did O=C(Cc1ccncc1)Nc1ccc2c(c1)[C@H]1C[C@@H](CC(=O)N3CCc4ccccc4C3)O[C@H](CO)[C@H]1O2 do in these assays?
Vaccinia stage: 10; Vaccinia stage Venus: 9

How did CCCN1C[C@@H](C)[C@@H](OC)CN(C)C(=O)c2cc(NC(=O)NC3CCCC3)ccc2OC[C@H]1C do in these assays?
Vaccinia stage: 18; Vaccinia stage Venus: 4

What do the screens show for `C[C@H]1CN([C@@H](C)CO)C(=O)c2cc(NC(=O)Cc3cn(C)c4ccccc34)ccc2O[C@@H]1CN(C)C(=O)Nc1ccc(C(F)(F)F)cc1`?
Vaccinia stage: 3; Vaccinia stage Venus: 10

What do the screens show for `O=C(c1ccc(F)cc1)N1CC(=O)N2[C@H](CO)[C@@H](c3ccc(C#CCC4CCCC4)cc3)[C@H]2C1`?
Vaccinia stage: inconclusive

How did C[C@@H]1CN([C@H](C)CO)C(=O)c2cccc(NC(=O)Nc3ccccc3)c2O[C@@H]1CN(C)C(=O)NC1CCCCC1 do in these assays?
Vaccinia stage: inconclusive

Results for CO[C@@H]1CN(C)C(=O)c2cc(NC(=O)c3nc4ccccc4s3)ccc2OC[C@@H](C)N(Cc2cccnc2)C[C@@H]1C ?
Vaccinia stage: -22; Vaccinia stage Venus: -21

Results for C/C=C/c1ccc(C2[C@H]3CNC[C@@H]2N3Cc2nccs2)cc1 (stereo partly drawn) ?
Vaccinia stage: 19&1; Vaccinia stage Venus: 17&12

How did COc1ccccc1CNC(=O)C[C@@H]1CC[C@@H]2[C@H](COC[C@H](O)CN2Cc2cccc(-c3ccncc3)c2)O1 do in these assays?
Vaccinia stage: inconclusive

What do the screens show for `CCCNC(=O)C[C@H]1CC[C@H]2[C@@H](COC[C@H](O)CN2C(=O)c2cc(Cl)cc(Cl)c2)O1`?
Vaccinia stage: 10; Vaccinia stage Venus: 14

What do the screens show for `COc1ccc(CN(C)C[C@@H]2OCCCC[C@@H](C)Oc3ccc(N(C)C)cc3C(=O)N([C@H](C)CO)C[C@H]2C)cc1`?
Vaccinia stage: -20; Vaccinia stage Venus: -15

What do the screens show for `CCN1[C@@H]2Cn3c(ccc(-c4ccccc4F)c3=O)[C@H]1[C@@H](C(=O)N1CCOCC1)[C@@H]2CO`?
Vaccinia stage: 14; Vaccinia stage Venus: 17

How did CN(C)C(=O)C[C@@H]1C=C[C@@H](NC(=O)C2CCOCC2)[C@H](CO)O1 do in these assays?
Vaccinia stage: 8; Vaccinia stage Venus: 6

Results for CCCNC(=O)N1C[C@H](O)COC[C@@H]2O[C@H](CC(=O)N3CCN(C)CC3)CC[C@H]21 ?
Vaccinia stage: 21; Vaccinia stage Venus: 9

What do the screens show for `CCCNC(=O)N1[C@H](CO)[C@@H](c2ccc(-c3ccccc3F)cc2)[C@@H]1C#N`?
Vaccinia stage: inconclusive

What do the screens show for `CCCC#Cc1ccc2c(c1)O[C@H](CN(C)C(=O)CN(C)C)[C@H](C)CN([C@H](C)CO)S2(=O)=O`?
Vaccinia stage: -18; Vaccinia stage Venus: -15

What do the screens show for `C[C@@H]1CN([C@@H](C)CO)C(=O)c2cc(C#CC3CCCC3)cnc2O[C@@H]1CN(C)C(=O)C1CCCCC1`?
Vaccinia stage: -30; Vaccinia stage Venus: -34

What do the screens show for `O=S(=O)(N[C@@H]1CC[C@@H](CCn2cc(-c3ccccn3)nn2)O[C@@H]1CO)c1cccc(Cl)c1`?
Vaccinia stage: -5; Vaccinia stage Venus: -8

What do the screens show for `COC(=O)C[C@H]1C[C@@H]2c3cc(N)ccc3O[C@@H]2[C@H](CO)O1`?
Vaccinia stage: 5; Vaccinia stage Venus: 17

How did CC(C)NC(=O)Nc1ccc2c(c1)CC(=O)N([C@H](C)CO)C[C@@H](C)[C@@H](CN(C)S(=O)(=O)c1ccc(Cl)cc1)O2 do in these assays?
Vaccinia stage: 1; Vaccinia stage Venus: 0

Results for C[C@@H]1CN([C@@H](C)CO)C(=O)c2cc(NC(=O)Nc3ccc(F)cc3)ccc2O[C@@H](C)CCCCO[C@@H]1CN(C)Cc1ccccc1 ?
Vaccinia stage: inconclusive

Results for C[C@H]1CN([C@@H](C)CO)C(=O)c2cccc(NS(=O)(=O)c3ccc(Cl)cc3)c2O[C@@H]1CN(C)Cc1ccc(C(=O)Nc2ccccc2N)cc1 ?
Vaccinia stage: 1; Vaccinia stage Venus: 1

How did C[C@@H]1CCCCO[C@@H](CN(C)S(=O)(=O)c2ccc(F)cc2)[C@H](C)CN([C@H](C)CO)C(=O)c2cc(NC(=O)C3CCCCC3)ccc2O1 do in these assays?
Vaccinia stage: inconclusive

Results for Cc1noc(C)c1NC(=O)N(C)C[C@@H]1OCCCC[C@H](C)Oc2ccc(NS(=O)(=O)c3ccc(Cl)cc3)cc2C(=O)N([C@@H](C)CO)C[C@@H]1C ?
Vaccinia stage: 11; Vaccinia stage Venus: -7

What do the screens show for `C[C@@H]1CN([C@H](C)CO)S(=O)(=O)c2ccc(-c3ccc(F)cc3)cc2O[C@H]1CN(C)C(=O)Nc1ccccc1F`?
Vaccinia stage: inconclusive

How did C[C@@H]1CN([C@@H](C)CO)C(=O)Cc2cc(NC(=O)Nc3ccc(C(F)(F)F)cc3)ccc2O[C@H]1CN(C)S(=O)(=O)c1ccccc1 do in these assays?
Vaccinia stage: -26; Vaccinia stage Venus: -18

Results for COCC#Cc1cnc2c(c1)C(=O)N([C@H](C)CO)C[C@H](C)[C@H](CN(C)C)O2 ?
Vaccinia stage: 23; Vaccinia stage Venus: 8

How did C/C=C/c1ccc2c(c1)O[C@@H](CN(C)C(=O)c1ccc(F)cc1)[C@@H](C)CN([C@@H](C)CO)S2(=O)=O do in these assays?
Vaccinia stage: -7; Vaccinia stage Venus: -11

What do the screens show for `COc1ccc(NC(=O)Nc2cccc3c2O[C@@H](CN(C)S(=O)(=O)c2cccs2)[C@H](C)CN([C@H](C)CO)C3=O)cc1`?
Vaccinia stage: 8; Vaccinia stage Venus: 6

How did O=C(c1ccccn1)N1C[C@@H]2[C@H](c3ccccc31)[C@@H](CO)N2C(=O)Nc1ccccc1 do in these assays?
Vaccinia stage: 1; Vaccinia stage Venus: 1

How did C/C=C/c1ccc([C@@H]2[C@@H](CO)N3C(=O)CN(C(=O)Cc4cccnc4)C[C@H]23)cc1 do in these assays?
Vaccinia stage: -7; Vaccinia stage Venus: -6

What do the screens show for `C[C@H](NC(=O)[C@H]1[C@H](CO)[C@H]2Cn3c(cccc3=O)[C@H]2N1CC1CC1)c1ccccc1`?
Vaccinia stage: 16; Vaccinia stage Venus: 5

How did O=C(C[C@H]1C=C[C@@H](NC(=O)c2cccnc2)[C@H](CO)O1)NCc1ccncn1 do in these assays?
Vaccinia stage: 11; Vaccinia stage Venus: 7

Fetched by compound from above (two):
Results for Cc1noc(C)c1NC(=O)N(C)C[C@@H]1OCCCC[C@H](C)Oc2ccc(NS(=O)(=O)c3ccc(Cl)cc3)cc2C(=O)N([C@@H](C)CO)C[C@@H]1C ?
Vaccinia stage: 11; Vaccinia stage Venus: -7

How did C/C=C/c1ccc([C@@H]2[C@@H](CO)N3C(=O)CN(C(=O)Cc4cccnc4)C[C@H]23)cc1 do in these assays?
Vaccinia stage: -7; Vaccinia stage Venus: -6
